# MT1-MMP promoter: MT1-MMP gene expression reporter suppression – cell-based, luciferase reporter, luminescence (AID 618). calls from a first round at 10 µM; hits with a dose series show EC50 in µM. 87,000 compounds, 0.62% hits. MT1-MMP promoter luciferase reporter cells, luminescence;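 active = over half of the reporter light lost at 10 µM or EC50 under 50 µM; inactive = the rest and hits that failed the dose series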;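 note: actives suppress MT1-MMP promoter-driven transcription so potencies describe inhibitors; HT1080 fibrosarcoma cells; overnight exposure; toxic or luciferase-blocking compounds were not removed from the actives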
# Hsc70 ATP site: Hsc70 inhibitors, probe displacement, primary screen, biochemical, fluorescence polarization (AID 568) | Hsc70 fluorescence polarization, probe displacement; higher % means a stronger effect; strong numbers were not always called active | displacement, % at 20 µM, or IC50 in µM where a hit was titrated | 83,000 tested, under 10 active;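 active = displacement above 50% without optical interference and an IC50 on retest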;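 note: ATPase domain with a fluorescein-tagged ATP probe; 0% = vehicle and 100% = excess ADP; read after one hour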
# WNV NS2B-NS3 inh: WNV NS2B-NS3 proteinase inhibition | z-score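 (tested at a level between 10 and 100 µM)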 | P06935 | WNV NS2B-NS3 protease, fluorogenic substrate Ex360/Em465; active compounds read low | 65,000 compounds, 0.18% hits;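 active = z-score at -3 or under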;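 note: score is relative to mean and spread of the compound wells of a plate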
# Target sequence (P06935 1371-1501 limits assumed): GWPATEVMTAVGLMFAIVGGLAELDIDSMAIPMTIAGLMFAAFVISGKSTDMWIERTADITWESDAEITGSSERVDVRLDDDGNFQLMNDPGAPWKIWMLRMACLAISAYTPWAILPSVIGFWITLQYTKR
# Target sequence (P06935 1502-1679 limits assumed): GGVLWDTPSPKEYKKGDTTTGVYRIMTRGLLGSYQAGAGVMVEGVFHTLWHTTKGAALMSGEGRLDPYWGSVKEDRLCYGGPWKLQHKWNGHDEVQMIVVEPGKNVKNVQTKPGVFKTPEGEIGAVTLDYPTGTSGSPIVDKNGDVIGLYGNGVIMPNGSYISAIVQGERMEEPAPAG
# * = called active by the depositor; i = inactive; . = no result given; + = active, no number. An unsorted share of the library. Share with any hit: about 0.87%.
structure	MT1-MMP promoter	Hsc70 ATP site	WNV NS2B-NS3 inh
CCOC(=O)c1ccc(N2C(=O)C=CC2=O)cc1	i	-2.4%	.
Cc1ccc(-n2c(SCC(=O)OC(C)C)nnc2-c2ccccn2)cc1	i	-1.0%	2.3
COc1ccc(NC(=O)/C(Cl)=C(/Cl)S(=O)Cc2ccc(C)cc2)cn1 (centres undefined)	+	0.3%	.
COc1ccccc1Nc1nc(C)cc(C)c1C(N)=O	i	-2.4%	-0.41
O=C(Cn1ccsc1=NC(=O)c1ccco1)c1ccccc1	i	0.2%	-1.1
CN(CC(O)COc1ccc(S(=O)(=O)N2CCOCC2)cc1)C1CCCCC1 (centres undefined)	i	0.7%	.
COc1ccc(NCc2cc3ccccc3[nH]c2=O)cc1	i	4.2%	-0.73
COc1ccc(NC(=O)CC2SC(=Nc3ccccc3)NC2=O)c(OC)c1 (centres undefined)	i	0.9%	0.0039
Cc1ccc(NC(=O)COC(=O)CN2CSCC2=O)cc1C	i	1.9%	0.56
O=C1CC(N2CCN(Cc3ccc4c(c3)OCO4)CC2)C(=O)N1c1cccc(Cl)c1 (centres undefined)	i	0.4%	.
Cc1nc2oc(C(=O)c3ccc(Br)cc3)c(N)c2c2c1COC(C)(C)C2	i	-3.9%	-0.7
CS(=O)(=O)N1CCCC(C(=O)NCCCN2CCc3ccccc3C2)C1 (centres undefined)	i	2.3%	0.89
Cc1nn(C)c(C(=O)Nc2ccc(S(=O)(=O)NC34CC5CC(CC(C5)C3)C4)cc2)c1Br	i	-1.7%	.
Cc1cc(SCC(N)=O)nc(SCC(=O)c2ccccc2)n1	i	-4.5%	0.03
CCOC(=O)c1c(NCC2CCCO2)c2ccccc2[nH]c1=O (centres undefined)	i	7.2%	.
O=S(=O)(NCc1ccc2c(c1)OCO2)c1ccc2oc3ccccc3c2c1	i	3.1%	.
Cn1c(SCC(N)=O)nnc1C1CCN(C(=O)NCc2ccccc2)CC1	i	-1.7%	-0.36
COc1ccccc1C1CC(=O)Nc2cc3c(cc21)OCCO3 (centres undefined)	i	-3.0%	-1.3
O=C(O)C(c1ccccc1)C1(O)CCCC1 (centres undefined)	i	-2.2%	-0.89
CCOc1ccccc1-n1c(COc2ccccc2)nnc1SCC(N)=O	i	-0.1%	0.78
CN(C)S(=O)(=O)c1ccc(S(=O)(=O)N(CC(=O)Nc2ccccc2)CC2CCCO2)cc1 (centres undefined)	i	-1.5%	1.9
Cn1c(=O)c2c(ncn2CCCc2ccccc2)n(C)c1=O	i	-0.1%	-2
CC1(C)Cc2ccccc2-c2nnc(-c3cccc(O)c3)n21	i	4.1%	0.68
Cn1c(=O)n(CC(=O)OCc2ccccc2)c(=O)c2c1nc1n2CCCN1C1CCCCC1	i	1.4%	-0.97
Cc1ccc(C)c(NC(=O)CS(=O)(=O)c2cn(C)c3ccccc23)c1	i	4.5%	.
CCCCn1c(CN2CCN(c3cccc(Cl)c3)CC2)nc2c1c(=O)[nH]c(=O)n2C	i	-5.6%	-0.19
Cc1cccc(C(C)(C)C)c1OCCCCN1CCCC1	i	-2.3%	.
Cc1ccccc1NC(=O)CC1SCCNC1=O (centres undefined)	i	1.3%	0.77
COc1ccc(S(=O)(=O)N(CCCN2CCOCC2)Cc2ccc(OC)c(OC)c2)cc1	i	2.8%	-0.36
CC(C)c1nc(N2CCOCC2)c(C#N)c2c1CCC2	i	5.1%	-0.19
COc1ccc(NC(=O)c2oc3ccc(S(=O)(=O)N4CCC5(CC4)OCCO5)cc3c2C)cc1	i	-3.2%	0.7
CCCc1cc(=O)[nH]c(SCC(=O)N2CCN(c3ccc(F)cc3)CC2)n1	i	-4.2%	-0.82
Cc1cc2n(n1)C(c1ccccc1)Nc1ccccc1-2 (centres undefined)	i	-1.6%	0.25
CC1(C)CC(=O)c2cnn(-c3nc4ccccc4[nH]3)c2C1	i	0.7%	1.6
CN(CC(=O)NCCC1=CCCCC1)S(=O)(=O)c1ccc2c(c1)CCC(=O)N2	i	0.7%	-3.8e-05
Cc1cn(S(=O)(=O)c2ccc(Br)cc2)cn1	i	-1.4%	.
NC(=O)CSc1nnc(COc2ccccc2)n1C1CCCCC1	i	-0.1%	-0.26
O=C(NCc1cccnc1)C1CCCCN1S(=O)(=O)c1ccc(F)cc1 (centres undefined)	i	1.9%	0.04
O=C(NCCC1=CCCCC1)c1ccc(=O)oc1	i	0.6%	-0.87
CCN(CC)C(=O)C1=C(C)Nc2nnnn2C1c1cccnc1 (centres undefined)	i	-2.1%	1.1
Cc1cccc(NC(=O)C23CCC(C)(/C(=N/O)C2)C3(C)C)c1 (centres undefined)	i	-9.2%	0.98
Cn1c(=O)oc2cc(S(=O)(=O)NC3CCCCCCC3)ccc21	i	-1.6%	-0.04
COC1CCCCC1NS(=O)(=O)c1ccccc1 (centres undefined)	i	2.9%	-1.2
c1ccc(Cc2nnc3sc(-c4ccc5c(c4)OCCO5)nn23)cc1	i	-0.6%	-0.1
COC(=O)C1CN(S(=O)(=O)c2ccc(C)cc2)CCN1S(=O)(=O)c1ccc(C)cc1 (centres undefined)	i	-0.9%	1.7
CCCCn1c(CN2CCN(C(=O)OCC)CC2)nc2c1c(=O)[nH]c(=O)n2C	i	3.0%	-0.03
O=c1[nH]c(CN2CCC(c3nc4ccccc4s3)CC2)nc2sc3c(c12)CCC3	i	-2.1%	-0.06
Cc1c(O)ccc(-c2[nH]ncc2-c2nc3ccccc3s2)c1O	i	6.3%	.
CC1CCCCC1NCC(=O)Nc1ccccc1-c1ccccc1 (centres undefined)	i	1.3%	.
COc1ccc2oc(=O)c(C(C)=O)cc2c1	i	-2.4%	.

# Following part
structure	MT1-MMP promoter	Hsc70 ATP site	WNV NS2B-NS3 inh
COc1cccc(N2C(=O)CC(N3CCC(C(N)=O)(N4CCCCC4)CC3)C2=O)c1 (centres undefined)	i	0.2%	1.6
Cc1nnc2n(Cc3ccccc3)c(=O)c3c4c(sc3n12)COC(C(C)C)C4 (centres undefined)	i	-0.6%	0.25
CC1(C)Cc2c(C#N)c(SCc3nc4ccccc4[nH]3)nc(N3CCOCC3)c2CO1	i	6.1%	1.3
Cc1ccccc1Sc1ncnc2onc(C)c12	i	4.5%	.
Cc1ccc(NC(=O)C2CCCN(S(=O)(=O)c3cnc[nH]3)C2)c(Br)c1 (centres undefined)	i	-2.2%	-0.27
O=C(OCC(=O)c1c[nH]c2ccccc12)c1ccco1	i	-6.9%	-0.57
CC(C)Oc1ccc(C(=O)O)c(C(=O)O)c1	i	-1.1%	.
Cc1cccc(-c2c3c(=O)n(C)c(=O)n(C)c3cn2-c2ccc(O)cc2)c1	i	-0.7%	-0.3
c1ccc(Cn2c(CNc3nc4ccccc4n3CCN3CCCCC3)nc3ccccc32)cc1	i	0.4%	.
COC(=O)c1[nH]c2ccc(C)cc2c1NS(=O)(=O)c1ccc(F)cc1	i	-11%	-0.54

# Among those listed so far, 4 contain bromine.
structure	MT1-MMP promoter	Hsc70 ATP site	WNV NS2B-NS3 inh
Cc1nc2oc(C(=O)c3ccc(Br)cc3)c(N)c2c2c1COC(C)(C)C2	i	-3.9%	-0.7
Cc1nn(C)c(C(=O)Nc2ccc(S(=O)(=O)NC34CC5CC(CC(C5)C3)C4)cc2)c1Br	i	-1.7%	.
Cc1cn(S(=O)(=O)c2ccc(Br)cc2)cn1	i	-1.4%	.
Cc1ccc(NC(=O)C2CCCN(S(=O)(=O)c3cnc[nH]3)C2)c(Br)c1 (centres undefined)	i	-2.2%	-0.27

# Three structures already listed, sorted by molar mass, highest first.
structure	MT1-MMP promoter	Hsc70 ATP site	WNV NS2B-NS3 inh
COC(=O)c1[nH]c2ccc(C)cc2c1NS(=O)(=O)c1ccc(F)cc1	i	-11%	-0.54
O=C(OCC(=O)c1c[nH]c2ccccc12)c1ccco1	i	-6.9%	-0.57
CC(C)Oc1ccc(C(=O)O)c(C(=O)O)c1	i	-1.1%	.

# Continued.
structure	MT1-MMP promoter	Hsc70 ATP site	WNV NS2B-NS3 inh
OCCCc1nc2n(n1)C(c1ccccc1)C=C(c1ccc(F)cc1)N2 (centres undefined)	i	3.4%	-1.1
COc1ccc(OC)c(C2=Nn3c(nnc3-c3cccc(OC(C)C)c3)SC2)c1	i	-6.8%	-0.06
Cc1nn(-c2ccccn2)c2c1-c1nc(N3CCOCC3)ncc1CC2	i	3.9%	.
O=C(O)C1C2C=CC(C2)C1C(=O)NCc1ccccn1 (centres undefined)	i	6.4%	0.23
CCN(C(=O)c1cccs1)c1nnc(-c2ccncc2)s1	i	-3.6%	0.6
COC(=O)CSc1nc2c(c(=O)n(C)c(=O)n2C)n1CCC(C)C	i	-0.7%	-1
O=C(Nc1ccc(Cl)cc1)NC1(C(=O)NCCCN2CCOCC2)CCCCC1	i	0.3%	-0.64
O=C(NCC1CCCO1)c1ccc(COc2ccc(F)cc2)o1 (centres undefined)	i	-7.0%	-1.1
CN(CC(=O)Nc1ccccc1C(=O)N1CCCC1)S(=O)(=O)c1ccc(Cl)cc1	i	3.3%	.
CCOC(=O)C1=C(C)Nc2nc(C)nn2C1c1ccc(OCC)c(OC)c1 (centres undefined)	i	2.1%	-1.9
O=C(c1ccc2snnc2c1)N1CCSCC1	i	-2.1%	0.14
COC(=O)C1(S(=O)(=O)C2(C(=O)OC)CCCC2)CCCC1	i	5.9%	-0.83
Cc1nnc(SCCC(C)C)[nH]c1=O	i	-5.0%	0.74
Cc1cc(NC(=O)CN2CCC(n3nnc4cc(C(F)(F)F)ccc43)CC2)no1	i	3.9%	1.8
Cc1nc2sc(C(=O)O)c(N)c2c2c1COC(C)(C)C2	i	-1.4%	0.84
Cc1ccc(-c2nnc(N3CCN(C(=O)CN4C(=O)c5ccccc5C4=O)CC3)c3ccccc23)cc1	i	-6.4%	-0.21
Cc1c(NC(=O)CSC2=C(C#N)C(c3ccccc3F)CC(=O)N2)c(=O)n(-c2ccccc2)n1C (centres undefined)	i	-9.2%	0.14
COc1ccccc1-c1nnc(NC(=O)c2ccc(S(=O)(=O)N(C)C)cc2)o1	i	-5.2%	1.9
COc1ccc(CNS(=O)(=O)c2ccc3c(c2)CCN3C(=O)C2CC2)cc1	i	1.6%	.
COc1ccc(-n2nc(C(=O)N3CCC(C#N)CC3)c3c4ccccc4n(C)c3c2=O)cc1	i	3.8%	1.2
CCOC(=O)Cn1nnnc1C(CC)N(Cc1ccccc1)Cc1cc2cc(C)ccc2[nH]c1=O (centres undefined)	i	6.9%	.
Cc1cc2ncn(C(=O)c3c(-c4ccccc4)noc3C)c2cc1C	i	3.6%	-0.67
Cc1ccc(C2CN=NC23CCc2ccccc2C3=O)cc1 (centres undefined)	i	-0.2%	.
CCOC(=O)c1ccc(NC(=O)C2CCN(S(=O)(=O)CC)CC2)cc1	i	1.5%	0.48
OC(COCc1ccccc1)CN1CCCC1 (centres undefined)	i	-5.4%	-1
COC(=O)[C@@H](NC(=O)NCc1ccccc1F)C(C)C	i	-3.6%	.
CC(=O)Nc1ccc(S(=O)(=O)Nc2cccc(NC(=O)C(C)(C)C)c2)cc1	i	-2.9%	-0.03
COc1ccc(F)cc1S(=O)(=O)Nc1ccc(C)cc1	i	-3.8%	-0.21
CCOC(=O)Nc1cccc(NC(=O)c2cc(OC)cc(OC)c2)c1	i	2.0%	-0.39
COc1ccc(-n2nnnc2SCC(=O)Nc2nnc(C)s2)cc1OC	i	-2.3%	0.23
CCOc1ccccc1Oc1c(C)oc2cc(OC(=O)N3CCOCC3)ccc2c1=O	i	5.6%	0.42
O=C(COc1ccccc1)Nc1nonc1NC(=O)COc1ccccc1	i	3.0%	.
CC1(C)CC(=O)c2cnc(N3CCc4ccccc4C3)nc2C1	i	-7.4%	-0.46
Oc1ccc2ccccc2c1C=NCc1cn2ccsc2n1	i	0.8%	-0.21
CCCCCCn1c(C(C)O)nc2ccccc21 (centres undefined)	i	-2.1%	-0.92
CCCC(=O)c1cc(F)c(N2CCN(CCC#N)CC2)cc1C	i	1.4%	-0.0073
O=C(CN1CCc2ccccc21)Nc1ccc2c(c1)OCO2	i	-10%	-0.63
O=S(=O)(NCCNS(=O)(=O)c1cccs1)c1cccs1	i	-6.8%	-0.32
Cc1cc2ncc(-c3ccc(Cl)cc3)c(N)n2n1	i	-1.6%	0.26
CCNc1nc(NCC)nc(OCCOC(C)=O)n1	i	2.3%	.
O=C(Cc1cccs1)N1CCC(c2nc3c(nnn3Cc3ccc(F)cc3)c(=O)[nH]2)CC1	i	2.8%	-0.81
COc1ccc(CCn2c(=N)c(C(=O)N3CCN(C)CC3)cc3c(=O)n4ccccc4nc32)cc1	i	0.0%	0.15
CCOC(=O)CCn1nc(-c2ccccc2)cc1N	i	-2.6%	2.1
CCOC(=O)c1cnc(-c2cccc(OC)c2)[nH]c1=O	i	1.8%	-0.81
CCOC(=O)CSc1nnc(CNc2nc(-c3ccccc3)cs2)n1C	i	5.3%	-0.82
COc1cccc(C(=O)Nc2cc(NC(=O)c3ccco3)ccc2OC)c1	i	8.2%	-0.63

# Bioassay records: PubChem BioAssay, several laboratories
